# Mtb bLac sens – beta-lactam sensitization of Mtb H37Rv; AID 434955; actives 0.27% (n = 330,000); inhibition, % at 25 µM; M. tuberculosis H37Rv growth with meropenem, percent inhibition; hits of this screen are not shown here;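 active means about 74% or more and at least 40 points above the plate without the antibiotic, then above 30% in a dose series; inconclusive means first-round hits that could not be retested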;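 further: growth measured after seven days incubation then overnight dye step; 0% = bacteria only wells and 100% = bacteria with antibiotic; twin plates without the antibiotic show which effects depend on it; some results filed as inactive read as strong as hits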
# RecA splice inh – blocks M. tuberculosis RecA intein splicing | cell-free RecA intein splicing, fluorescence | inhibition, %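 (about 9 µM by stock and volumes)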 | actives 0.75% (n = 290,000) | AID 2221; in the data active means inhibition above about 30%; inconclusive means no clear call, values can overlap the other calls;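 further: 0% = vehicle wells and 100% = reference inhibitor control wells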
# Target sequence (P9WHJ3 whole entry, looked up, canonical isoform): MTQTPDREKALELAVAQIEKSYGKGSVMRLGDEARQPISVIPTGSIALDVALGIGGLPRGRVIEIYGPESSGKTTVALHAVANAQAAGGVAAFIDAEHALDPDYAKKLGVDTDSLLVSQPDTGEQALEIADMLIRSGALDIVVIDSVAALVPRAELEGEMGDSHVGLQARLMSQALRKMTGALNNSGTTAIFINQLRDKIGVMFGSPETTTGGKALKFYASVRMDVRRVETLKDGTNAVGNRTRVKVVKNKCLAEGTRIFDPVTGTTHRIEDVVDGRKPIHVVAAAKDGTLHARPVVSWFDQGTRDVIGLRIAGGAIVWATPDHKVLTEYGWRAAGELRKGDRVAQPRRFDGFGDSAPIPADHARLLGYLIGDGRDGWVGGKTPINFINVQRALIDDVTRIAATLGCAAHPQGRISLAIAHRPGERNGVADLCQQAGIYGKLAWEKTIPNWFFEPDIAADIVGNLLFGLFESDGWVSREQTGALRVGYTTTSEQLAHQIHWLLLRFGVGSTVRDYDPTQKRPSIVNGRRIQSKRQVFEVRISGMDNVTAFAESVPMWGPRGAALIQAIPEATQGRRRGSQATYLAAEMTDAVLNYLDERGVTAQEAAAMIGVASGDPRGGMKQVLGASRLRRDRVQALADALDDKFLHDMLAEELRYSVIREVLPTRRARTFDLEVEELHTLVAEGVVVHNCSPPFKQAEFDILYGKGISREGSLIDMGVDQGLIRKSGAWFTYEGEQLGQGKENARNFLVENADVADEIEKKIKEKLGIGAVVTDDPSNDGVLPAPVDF
# An asterisk follows results filed as active; u = inconclusive; x = no result given. An excerpt; the hit share may differ from the screen's.
# Fields – Mtb bLac sens | RecA splice inh
Cc1cc(C)c(-c2c(O)c3ccccc3n(C)c2=O)c(C)c1
    x | 2.9
CCC1CCCCN1C(=O)c1ccc(OC)c(OC2CCN(C(C)=O)CC2)c1 (stereo not given)
    x | -1.4
O=C(/C=C/c1ccc([N+](=O)[O-])cc1)c1cccs1
    x | -0.9
Cn1ccc(C(=O)Nc2cccnc2Cl)n1
    x | -5.3
Cc1cc(C)cc(CN2CCC(Oc3ccc(C(=O)N4CCCC4)cc3)CC2)c1
    x | 1.0
COc1ccc(CC(NC(C)=O)C(=O)NC2CCN(C(=O)c3cccc(Cl)c3)CC2)cc1OC (stereo not given)
    x | -0.5
Cc1ccc(-c2nnn(CC(=O)N(CC(=O)NC3CCCCC3)c3ccccc3F)n2)o1
    x | -0.4
O=C(CSc1nnc(-c2ccccc2O)o1)N1CCOCC1
    x | 0.0
CC(=O)NCCC(=O)Nc1nc(-c2ccc3ccccc3c2)cs1
    x | 3.0
O=C(O)c1ccc(NS(=O)(=O)c2cccc(C(=O)Nc3ccccc3[N+](=O)[O-])c2)cc1
    x | 1.0
COc1cccc(CN2CC(C(=O)NCc3ccc(Cl)s3)CCC2=O)c1 (stereo not given)
    x | -0.3
COc1cccc(CC(NC(C)=O)C(=O)NC2CCN(C(=O)C3CCCCC3)CC2)c1OC (stereo not given)
    x | 2.0
O=C(CSc1nnc(-c2cccc(F)c2)o1)NC1CCCC1
    x | 0.1
Cc1ccc(NC2CCCN(C(=O)CCC(=O)c3ccccc3)C2)cc1C (stereo not given)
    x | 5.4
O=c1c2cn(Cc3ccc(F)cc3)c3ccccc3c-2nn1Cc1ccc(F)cc1
    x | -0.1
CCn1cc(C(=O)NCCc2ccc(Cl)cc2)c(=O)c2ccc(C)nc21
    x | 0.2
CCCn1cc2c3c(cccc31)C1CC(C)CN(C)C1C2 (stereo not given)
    x | -7.9
NC(=O)c1nsc(C(=O)N(Cc2ccc(F)cc2)C(C(=O)NCC2CCCO2)c2ccc(O)cc2)c1N (stereo not given)
    x | 1.3
COc1cc(/C=C2/C(=O)N(c3ccc(Br)cc3)N=C2C)cc(OC)c1OC
    x | 63*
Cc1ccc(C2=N/C(=C\c3cccc(F)c3)C(=O)O2)cc1
    x | -1.1
Cc1ccc(NC(=O)C2CC(O)CN2C(=O)OCc2ccccc2)cc1C (stereo not given)
    x | 3.3
COc1ccc(C2=NN(C(=O)CCC(=O)O)C(c3ccccc3)C2)cc1 (stereo not given)
    x | 1.0
COc1ccc(S(=O)(=O)N2CCOC23CCN(S(=O)(=O)c2ccc(F)cc2C)CC3)cc1
    x | 11
COc1ccc(CCN(C(=O)c2snc(C(N)=O)c2N)C(C(=O)NCC2CCCO2)c2ccc(F)cc2)cc1OC (stereo not given)
    x | 1.4
O=C(CN(C(=O)c1csnn1)c1ccccc1Cl)NC1CCCCC1
    x | 0.4
COc1ccc(Br)cc1/C=N/n1c(C)nc2ccccc2c1=O
    x | -0.5
CC1OC(O[C@H]2CC[C@]3(C)C4C=C[C@]56OC[C@@]7(CC[C@@H](C)[C@H](C)C75)[C@H](O)C[C@@]6(C)[C@]4(C)CC[C@H]3C2(C)C)C(OC2OC(CO)C(O)C(O)C2OC2OCC(O)C(O)C2O)C(O)C1O (stereo not given in full)
    x | 15
COc1ccc(NC(=O)c2ccccc2Cl)c(NC(=O)c2ccco2)c1
    x | 2.6
COc1cccc(/C=C/c2[nH]c(=O)[nH]c(=O)c2[N+](=O)[O-])c1O
    x | -1.5
O=C(Nc1nncs1)c1ccc(F)c(S(=O)(=O)N2CCCCC2)c1
    x | -4.7

# (cont.)
# Fields – Mtb bLac sens | RecA splice inh
Cn1c(=O)n(C)c2cc(N3CCCCC3)c(NC(=O)c3ccccc3)cc21
    x | -2.4
Cc1cccc(CNC(=O)C2CCC(=O)N(CCc3cccc(F)c3)C2)n1 (stereo not given)
    x | -0.9
COc1ccc(CNC(=O)CN2CCC(NC(=O)c3ccc(OC)cc3)CC2)cc1
    x | 1.0
CCC(=O)Nc1ccc(N2CCN(C(=O)c3ccco3)CC2)c(Cl)c1
    x | -2.4
COc1ccc(OC)c(CNc2ncc(-c3ccc(F)cc3)n2C)c1
    x | 1.8
CCc1nnc2c(NCCc3ccc(OC)c(OC)c3)nc3ccccc3n12
    x | -0.4
CC(C)(C)c1ccc(-n2ncc3c2CCCC3NC(=O)CCCn2cncn2)cc1 (stereo not given)
    x | 5.8
CSCC(C)N1CCC(n2nccc2NC(=O)CCc2ccccc2)CC1 (stereo not given)
    x | 0.5
O=S(=O)(NCCc1ccccc1)c1cnc(Cl)c(Br)c1
    x | 3.7
CCc1ccc(OCc2cccc(C(=O)N/N=C\c3cnn(C)c3C)c2)cc1
    x | -4.7
CCN(CC)C(=O)CSc1nc2c(sc(=S)n2-c2ccccc2)c(=O)n1-c1ccccc1OC
    x | -106
CC(=O)c1ccc(NC(=O)CC2S/C(=N/N=C3CCCCCC3)NC2=O)cc1 (stereo not given)
    x | 3.7
COc1ccccc1-n1c(SC)nc2c(sc(=S)n2-c2ccccc2)c1=O
    x | 0.5
CCC(CC)Nc1ccc(C(CC(N)=O)NC(=O)c2ccccc2)cc1[N+](=O)[O-] (stereo not given)
    x | 1.1
Cn1cc([N+](=O)[O-])c(C(=O)NC2CCCC2)n1
    x | 1.1
CC(C)N(Cc1nccn1C)C(=O)c1ccc2oc(Cc3ccccc3)nc2c1
    x | -1.2
COc1ccc(CN2CCNC(=O)C2CC(=O)NCC2CCOCC2)cc1C (stereo not given)
    x | 1.0
Cc1ccc(S(=O)(=O)N2C(=O)[C@@H]3Cc4ccccc4CN3C2=O)cc1
    x | 0.6
CCC(=O)N1CCc2cc(S(=O)(=O)N(C)c3ccc(Br)cc3)ccc21
    x | -0.1
O=C(NCc1cccnc1)c1cc(S(=O)(=O)N2CCCC2)c(Cl)cc1Cl
    x | -0.4
Cc1ccc(CN2CCC(C(=O)Nc3ccc(Oc4cccnc4)cc3)CC2)cc1
    x | -4.2
CCN(CC)S(=O)(=O)c1ccc(C(=O)NCC(=O)NCCCc2ccccc2)cc1
    x | 2.3
O=S(=O)(NCC1CCN(c2ccc(S(=O)(=O)N3CCOCC3)cc2)CC1)c1ccccc1
    x | 5.9
CC(=O)c1sc(N/N=C\c2ccc(N(C)C)cc2)nc1C
    x | -5.6
CCC(NC(=O)c1cc(COc2ccc(F)cc2Cl)on1)c1ccncc1 (stereo not given)
    x | -1.1
Cc1nn(C)c(C(=O)NC(=S)Nc2ccc([N+](=O)[O-])cc2)c1Cl
    x | 0.5
Cn1ccc(C(=O)OCC(=O)Nc2ccccc2)n1
    x | 1.3
CCOCCCN(C(=O)Cn1nnc(-c2ccc(C)o2)n1)C(C(=O)NC1CCCC1)c1ccc(C)o1 (stereo not given)
    x | 1.5
CCOc1ccc(S(=O)(=O)N2CCN(S(=O)(=O)c3ccc(C)c(C)c3)CC2)cc1
    x | 0.6
CCOc1ccc(C(C(=O)NCC2CCCO2)N(Cc2cccnc2)C(=O)c2snc(C(N)=O)c2N)cc1 (stereo not given)
    x | -1.7

# (listing goes on)
# Fields – Mtb bLac sens | RecA splice inh
O=CN1CCN(C(=S)NC(=O)c2ccc(Cl)cc2)CC1
    x | 3.1
O=C(CNC(=O)C1CCCCC1)OCC(=O)c1ccc(Br)cc1
    x | 0.0
CC(C)c1ccc(NC2CCCN(C(=O)c3cc(C(C)C)[nH]n3)C2)cc1 (stereo not given)
    x | -0.1
COc1ccc(CNS(=O)(=O)c2cc3c4c(c2)CCN4C(=O)CC3)cc1
    x | 6.6
CC1=C(C)CC(C(=O)NC2CCCC2)C(C(=O)O)C1 (stereo not given)
    x | -2.3
Cc1cc(Br)cc2c(C(=O)NCC3CCCO3)cc(-c3ccccc3)nc12 (stereo not given)
    x | 0.6
Cc1c(C(=O)N(Cc2nnc(-c3ccccc3Cl)o2)C2CC2)oc2ccccc12
    -4 | x
Cc1ccc(C)c(S(=O)(=O)N2CCN(C(=O)[C@@H](NC(=O)c3ccc(F)cc3)C(C)C)CC2)c1
    -9 | x
CCCCNC(=O)COC(=O)C1CCN(S(=O)(=O)c2ccc3c(c2)OCCO3)CC1
    -8 | x
CN(C)c1ccc(C(=O)NNC(=O)C23CC4CC(CC(C4)C2)C3)cc1
    3 | x
Cc1c(Br)c(=O)oc2cc(OCC(=O)N3C[C@H]4C[C@@H](C3)c3cccc(=O)n3C4)ccc12
    -13 | x
C[C@@]12C(=O)N(Cc3ccc(F)cc3)CC(=O)N1[C@H]1c3cc(Cl)ccc3OC[C@@H]1[C@@H]2c1ccccc1
    4 | x
Cc1cccc(C)c1NC(=O)CSc1nc(C2CC2)nc2ccccc12
    4 | x
CCCCNC(=O)c1onc(CS(=O)(=O)c2ccccn2)c1C(=O)NCCCC
    -5 | x
CC(=O)c1ccc(S(=O)(=O)NCCC(=O)NCCc2c[nH]c3ccccc23)cc1
    -1 | x
COc1ccc(CN(C)C(=O)c2cccc(S(=O)(=O)N3CCc4ccccc43)c2)c(OC)c1
    -6 | x
CC(=O)NC12CC3CC(C1)CC(C(=O)N(C)CC(=O)Nc1ccc(F)c(F)c1F)(C3)C2
    1 | x
CCCNC(=O)N1[C@H]2CC[C@@H]1C(C(=O)OC)=C(c1ccc3ccccc3c1)C2
    5 | x
CC(NC(=O)/C(C#N)=C/c1ccc(N2CCOCC2)cc1)c1ccccc1 (stereo not given)
    -6 | x
COc1cc(C(C)=O)ccc1OCC(=O)Nc1ccc(Cl)c(S(=O)(=O)N2CCOCC2)c1
    -4 | x
CCOCc1c(C(=O)NCC(c2ccco2)N2CCCC2)oc2ccccc12 (stereo not given)
    -5 | x
CC(SCc1ccccc1)C(=O)Nc1ccccc1Br (stereo not given)
    -2 | x
COC(=O)[C@@]12CCCCN1[C@H](c1ccc(-c3ccc(Cl)c(Cl)c3)cc1)[C@H]1C(=O)N(C)C(=O)[C@H]12
    -11 | x
CNC[C@H]1Oc2c(NS(=O)(=O)c3ccc(OC)cc3)cccc2C(=O)N([C@H](C)CO)C[C@H]1C
    1 | x
COc1cc(OC)cc(-c2c(C#Cc3ccsc3)c3cc(-c4ccc5[nH]ccc5c4)ccc3n2C)c1
    -1 | x
CCCCCCSc1cccc(-c2nc3ccccn3c2NCc2ccccc2)c1
    23 | x
O=C(O)C1CCCN1c1nc(-c2ccc(Cl)c(Cl)c2)cc(C(F)(F)F)n1 (stereo not given)
    1 | x
CCN1C(=O)[C@@H]2[C@@H](c3ccc(-c4ccc(F)cc4)c(OC)c3)N3CCCC[C@@]3(C(=O)OC)[C@@H]2C1=O
    -12 | x
C=CCn1c(SCC(=O)Nc2ccc3c(c2)OCCO3)nc2cc(C(=O)O)ccc2c1=O
    -5 | x
CC(=O)c1ccc(N2C(=O)CC(N3CCN(S(=O)(=O)c4cc(C)ccc4C)CC3)C2=O)cc1 (stereo not given)
    -10 | x

# Next part
# Fields – Mtb bLac sens | RecA splice inh
CC(OC(=O)COc1ccc(C#N)cc1)C(=O)c1ccccc1 (stereo not given)
    -4 | x
CCc1noc(C)c1C(=O)N(CCCOC)c1c(N)n(Cc2ccccc2)c(=O)[nH]c1=O
    -8 | x
CN(C)CCCNC(=O)N1c2ccccc2Sc2ccccc21
    8 | x
O=C(Nc1cc(Cl)ccc1N1CCCC1)C1=COCCO1
    -2 | x
O=C(CCNC(=O)c1ccc(Br)cc1)NCc1ccco1
    4 | x
CC(C)[C@H](NC(=O)c1ccccc1F)C(=O)NC1CCCCC1
    0 | x
C[C@H]1NC(=O)[C@@]2(C)[C@@H](c3ccccc3)[C@H]3COc4ccccc4[C@@H]3N2C1=O
    5 | x
CC(Oc1ccc(S(=O)(=O)N2CCCC2)cc1[N+](=O)[O-])C(=O)NC1(C#N)CCCCC1 (stereo not given)
    0 | x
O=C1C=CCCC1
    5 | x
COc1cccc(C(C(=O)NC2CCCC2)N(C(=O)c2ccco2)c2ccccc2)c1OC (stereo not given)
    2 | x
Cc1ccc(C(=O)/C=C/NNC(=O)c2ccccc2O)cc1
    -5 | x
O=C(COC(=O)c1cc(=O)[nH]c(=O)[nH]1)Nc1ccccc1F
    -2 | x
N[C@@H](CCC(=O)N[C@@H](CSN=O)C(=O)NCC(=O)O)C(=O)O
    0 | x
CCCCCCCN1CCN=C1N(C)C
    -4 | x
Cc1cc(N2CCCC2)ccc1NC(=O)COc1ccc(Cl)cc1
    99 | x
Cc1cc(C)cc(NC(=O)N2CCC(NC(=O)c3ccco3)CC2)c1
    -25 | x
Cc1ccc([C@@H]2CC=C(C(=O)O)CN2S(=O)(=O)c2ccc(C)cc2)cc1
    -3 | x
COc1ccc(N2CCN(CC(=O)Nc3ccccc3C(=O)NCc3ccccc3)CC2)cc1
    u | x
Cc1occc1-c1nnc(SCC(=O)NC2CCC(C)CC2)o1 (stereo not given)
    7 | x
OCC[C@H]1C[C@H](O)[C@@H](O)[C@@]2(CCc3ccccc3O2)O1
    0 | x
CC(Sc1nnnn1C)C(=O)Nc1cc(S(=O)(=O)N2CCCCC2)ccc1Cl (stereo not given)
    -9 | x
Cc1nn(CC(=O)c2ccc3c(c2)OCCO3)c(=O)c(C#N)c1C
    3 | x
CCOc1ccc(NC(=O)COC(=O)Cc2ccsc2)cc1
    6 | x
Cc1cccc(C)c1NC(=O)CNC(=O)c1ccc2c(c1)NC(=O)CS2
    2 | x
O=C(CCCNC(=O)c1ccc(Cl)cc1)Nc1cccc(S(=O)(=O)N2CCCCC2)c1
    1 | x
COc1cc(OC)c(N(C)S(=O)(=O)c2cccc(C(=O)Nc3nc(C)cs3)c2)cc1Cl
    -2 | x
CCc1noc(C)c1C(=O)OCC(=O)c1ccc(NC(C)=O)cc1F
    -3 | x

# Look-ups from above:
# Mtb bLac sens with O=C(Nc1cc(Cl)ccc1N1CCCC1)C1=COCCO1 = -2
# Mtb bLac sens with CCOc1ccc(NC(=O)COC(=O)Cc2ccsc2)cc1 = 6

# Bioassay records from PubChem BioAssay.
